Autofluor counter: flagged as autofluorescent in microsphere protease counterscreen. AID 624483. fluorescence intensity (concentration not given with the values). compound autofluorescence counterscreen, microsphere flow cytometry; active compounds read high. actives 3.1% (n = 360,000);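 active = at least 3 SD above the mean of all compounds, about 16000 in these data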;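 note: 100 nL of 1 mM stock went into each well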
The depositor's hits bear a star. Some of the compounds tested (hit frequency here may not be typical).

SMILES	Autofluor counter
CN(Cc1ccccc1)C(=O)c1ccc2nc([C@H]3C[C@H](O)[C@@H](CO)O3)[nH]c2c1	3406
CC(C)(C)Cc1c(-c2cccc(Br)c2)nc2ccc(Br)cn12	5107
CC(C)CC1C(=O)N(Cc2cn(CCC3OCCO3)nn2)CCS(=O)(=O)N1Cc1ccc(-c2cccc(N(C)C)c2)cc1 (stereo unspecified)	2945
Cc1cccc(CC(=O)NCCS(=O)(=O)N2CCN(c3ccccc3)CC2)c1	3015
COc1ccc(NC(=O)C2(C)Cc3c(-c4ccc(NC(C)=O)cc4)ccnc3O2)cc1 (stereo unspecified)	3480
COc1ccc(-c2cc(NC(C)=O)c3ncc(-c4cccc(C(F)(F)F)c4)n3c2)c(OC)c1	2902
Cc1ccc(S(=O)(=O)Nc2ccc(Nc3nccn4c(-c5ccc6ccccc6c5)cnc34)cc2)cc1	2895
CO[C@H]1C=CCCC=CC(=O)O[C@H]([C@H](C)C(=O)CCCC2CC(=O)NC(=O)C2)C(C)=C[C@@H](C)[C@@H]1O	5792
OCCN1CCN(c2cc(-c3ccc(CO)cc3)nc3ccnn23)CC1	3707
CN(C)c1ccc(-c2ccnc3c2CC(C)(C(=O)Nc2cccc(Oc4ccccc4)c2)O3)cc1 (stereo unspecified)	3318
CC(C)n1nnnc1C1c2ccccc2C(=O)N1CCc1c[nH]c2ccccc12 (stereo unspecified)	4267
CCCNC(=O)C1(C)CCCN(C(=O)c2sccc2C)C1 (stereo unspecified)	3701
CN1CCN(c2ccc(CNC(=O)C3Cc4c(-c5ccc(Cl)cc5)ccnc4O3)cc2)CC1 (stereo unspecified)	2993
Cc1cn([C@H]2C[C@H](O)[C@@H](/C=C/C(=O)NCCN3CCCCC3)O2)c(=O)[nH]c1=O	6183
COC(=O)c1ccc(CNC(=O)CN2C(=O)NC(Cc3ccccc3)(c3ccccc3)C2=O)cc1 (stereo unspecified)	3952

Overlap with the part before: 2 compounds; new compounds follow.
SMILES	Autofluor counter
Cc1cn([C@H]2C[C@H](O)[C@@H](/C=C/C(=O)NCCN3CCCCC3)O2)c(=O)[nH]c1=O	6183
COC(=O)c1ccc(CNC(=O)CN2C(=O)NC(Cc3ccccc3)(c3ccccc3)C2=O)cc1 (stereo unspecified)	3952
Cc1ccc(-c2nc3cc(C)c(Br)c(C)n3c2Cc2ccsc2)cc1	6312
Cn1c(=O)c2cc(NC(=O)OCCF)ccc2n1Cc1cccc(C(F)(F)F)c1	3992
O=C1c2ccccc2S(=O)(=O)c2cc(-c3nn[nH]n3)ccc21	3805
O=C1c2ccccc2C(c2nnnn2Cc2ccccc2)N1CCOc1ccccc1 (stereo unspecified)	5976
CC(C)Oc1cc(F)ccc1-c1cc(C(=O)Nc2ccc(F)cc2)[nH]n1	2825
COc1ccc(-c2ccc(CN3C(C)C(=O)N(Cc4cn(CCC5OCCO5)nn4)CCS3(=O)=O)cc2)cn1 (stereo unspecified)	3907
CCCc1nc2ccc(C)cn2c1Cc1ccsc1	4887
CC(=O)Nc1ccc(C=C(C#N)c2ccc(C)cc2)cc1	3719
CCOC(=O)C1(C)CCCN(C(=O)c2ccc(N(C)C)cc2)C1 (stereo unspecified)	9620
COC(=O)c1cnc(Nc2nc(CN)cs2)nc1C(F)(F)F	2906
C[C@@H]1CN([C@H](C)CO)S(=O)(=O)c2ccc(Br)cc2O[C@H]1CN(C)C(=O)Nc1ccc(F)cc1	3007
CC1(C(=O)Nc2ccccc2F)CCN1C(=O)Cc1ccc(-c2ccccc2)cc1 (stereo unspecified)	3895
Cc1cccc(S(=O)(=O)N(C)C[C@@H]2OCc3cnnn3CCCC(=O)N([C@@H](C)CO)C[C@@H]2C)c1	3745
CCOC(=O)[C@]12CCC=C1N(Cc1ccc(Cl)cc1Cl)C(=O)[C@H](CC(=O)N1CCN(C(=O)c3ccco3)CC1)C2	5620
COc1ccc(S(=O)(=O)Nc2ccc3c(c2)C(=O)N([C@H](C)CO)C[C@H](C)[C@@H](CN(C)C(=O)Nc2ccc(F)cc2)OCCCC[C@H](C)O3)cc1	2920
FC(F)(F)c1ccc(Cl)c(Nc2nnc(-c3ccncc3)s2)c1	2914
COc1ccc(OC)c(NCCN2C(=O)c3ccccc3C2=O)c1	3853
CCN(CC)C(=O)c1ccc2nc([C@@H]3O[C@H](CO)[C@H](O)[C@H](O)[C@H]3O)[nH]c2c1	3554
O=C(Nc1ccccc1)c1cc(C2CCCCN2S(=O)(=O)c2cccs2)on1 (stereo unspecified)	3611
CCc1nc2c(OCc3ccc(C(F)(F)F)cc3)cccn2c1N(C)C(=O)c1ccc(C)cc1	4142
O=C(c1ccccc1)N(CCCl)C(=O)N(CCCl)C(=O)c1ccccc1	4102
COc1ccc(-c2cc(NC(C)=O)c3ncc(-c4cccc(C(C)=O)c4)n3c2)cc1OC	4294
CSc1ccc(CN2CCC(C)(Oc3ccc4ccccc4c3)C2)cc1 (stereo unspecified)	3930
Cc1nc(C(F)(F)F)ccc1C(=O)N1CCC1(C)C(=O)NS(=O)(=O)c1cccc(C#N)c1 (stereo unspecified)	4011
COCOCCn1cc(CN2CCS(=O)(=O)N(Cc3ccc(-c4ccc(F)cc4)cc3)C(C(C)C)C2=O)nn1 (stereo unspecified)	3594
Clc1cccc(-c2nc3c4ccccc4ccn3c2CC2CCCCC2)c1	5928
COc1cccc(CNC(=O)[C@H](C)NC(=O)N2CC(=O)Nc3ccccc32)c1	2864
COc1cccc(NC(=O)C2(C)CCCN(C(C)C)C2)c1 (stereo unspecified)	3800
CCSc1ccc(-c2cc(NC=O)c3ncc(-c4cccc(C(=O)NCCN(C)C)c4)n3c2)cc1	5390
OC(c1ccc(F)cc1)c1nc(-c2cncnc2)cs1 (stereo unspecified)	4020
CCc1nc2c(OCc3ccc(Cl)cc3)cccn2c1N(C)C(=O)c1ccccc1F	4085
COc1ccccc1CNc1nc(NCc2ccccc2)nc2ccsc12	2896
Cc1ccc(NC(=O)CNC(=O)CN2C(=O)c3ccccc3C2=O)cc1	4510
COc1cccc(C)c1NC1=NCCO1	3633
CC(=O)Nc1ccc(-c2ccnc3c2CC(C(=O)Nc2cccc(N(C)C)c2)O3)cc1 (stereo unspecified)	3663
Cc1ccc2nc(-c3ccco3)c(CC3CCCCC3)n2c1	6627
CCOc1cc(/C=N/NC(=O)c2c(C)nc3ccc(Cl)cn23)ccc1O	4014
CCc1nc2ccc(C(=O)N3CCN(S(=O)(=O)CC)CC3)cn2c1N(C)C(=O)c1cccc(OC)c1	4023
O=C(O)Cc1ccc(N2N=C(c3ccccc3)CC2=O)cc1	4488
CC1(C(=O)NS(=O)(=O)C2CC2)CCCN(C(=O)c2ccc3c(c2)OCO3)C1 (stereo unspecified)	3603
COc1ccc(Cl)cc1CC1(C)C(=O)Nc2ccc(S(=O)(=O)NC3CCCCC3)cc21 (stereo unspecified)	3811
O=C(COc1ccc(Br)cc1)OCC(=O)c1ccc[nH]1	3142
O=C(NCC1CCCCC1)c1ccc2nc([C@@H]3O[C@H](CO)[C@@H](O)[C@H]3O)[nH]c2c1	3711
C[C@H](CO)N1C[C@H](C)[C@H](CN(C)C(=O)Cc2ccccc2)OCc2cnnn2CCCC1=O	3727
C[C@@H]1CN([C@H](C)CO)C(=O)CCCn2nncc2CO[C@@H]1CN(C)S(=O)(=O)c1ccc(-n2cccn2)cc1	3943
Cc1cc2nc(C3CCCCC3)c(Cc3ccccc3)n2c(C)c1Br	5337
COc1cccc(CNC(=O)[C@@H]2CCCN2C(=O)[C@@H]2CCCN2C(=O)c2cccs2)c1	5791
C=CCOc1ccc(Cl)cc1-c1noc(-c2csc([C@H]3C[C@H](O)[C@@H](CO)O3)n2)n1	3916
CC1(C(=O)NC2CCCCCC2)CCN1C(=O)C1(c2ccccc2)CC1 (stereo unspecified)	3769
CC(C)C[C@H]1CN(CCCC[C@@H]2CNC(=O)C(=O)N2Cc2ccccc2)C(=O)C(=O)N1Cc1ccccc1	5301
N#Cc1ccc2nc(-c3ccc(CN4CCC(n5c(=O)[nH]c6ccccc65)CC4)cc3)c(-c3ccccc3)nc2c1	5978
COC(=O)[C@]12CCCCC=C1N(Cc1ccc(Cl)cc1Cl)C(=O)[C@H](CC(=O)NCc1cccc3ccccc13)C2	5890
C[C@H](NC(=O)c1ncn2c1c(=O)[nH]c1ccc(Br)cc12)c1ccccc1	3064
CC1(C(=O)NCc2ccco2)Cc2c(-c3ccc(C(N)=O)cc3)ccnc2O1 (stereo unspecified)	3735
CCc1cccc(NC(=O)c2cc(S(=O)(=O)N3CCCCC3)ccc2N2CCOCC2)c1	3767
COc1ccc(CNC(=O)C2(C)Cc3c(-c4ccc(N(C)C)cc4)ccnc3O2)cc1OC (stereo unspecified)	3931
C=CCCC(=O)N1C[C@H]2CON(C)[C@H]2C[C@H]1c1ccc(Br)cc1	2915
CCc1nc2ccc(C(=O)N3CCN(C(=O)c4ccco4)CC3)cn2c1N(C)CCC(C)C	3496
Cc1c(C(=O)NCc2ccccc2C(F)(F)F)sc(=O)n1Cc1ccc2c(c1)OCO2	5620
CCCNC(=O)C1(C)CCN(C(=O)c2ccc(F)c(Cl)c2)C1 (stereo unspecified)	3791
Next part.
SMILES	Autofluor counter
O=C1c2ccccc2C(c2nnnn2-c2ccc3c(c2)OCCO3)N1Cc1cccs1 (stereo unspecified)	6035
CC(C)C[C@@H](CN1CCC[C@@H]1CN1C(=S)NC[C@@H]1Cc1ccc(O)cc1)N1C[C@H](Cc2ccc(O)cc2)N(CC2CCCCC2)C1=S	6019
CC(=O)CC1c2cc(F)ccc2C=C(c2ccsc2)N1c1ccc(C#Cc2cncn2C)cc1 (stereo unspecified)	5567
CCc1cnc(Nc2nc(C(N)c3ccccc3Cl)cs2)nc1 (stereo unspecified)	3388
O=C(c1cccc(Br)c1)c1nc2ccccc2[nH]c1=O	4281
CSc1ccccc1NC(=O)C1(C)CCN1C(=O)Cc1ccc(-c2ccccc2)cc1 (stereo unspecified)	2883
CC1(C)CC(=O)C=C(c2ccccc2CO)C1=O	3374
O=NN(CC(=O)NNc1ccccc1)CC(=O)NNc1ccccc1	5367
CCc1ccc(N2CC(C(=O)Nc3ccc(OC)c(S(=O)(=O)N4CCOCC4)c3)CC2=O)cc1 (stereo unspecified)	3577
COc1ccc(-c2nc3cc(C)c(Br)c(C)n3c2Cc2ccccc2C(F)(F)F)cc1OC	5906
N#CCC(C(=O)c1cccnc1)c1ccccc1 (stereo unspecified)	3471
CC(Sc1nc(N)cc(=O)[nH]1)C(=O)Nc1ccc(N2CCOCC2)cc1 (stereo unspecified)	3556
CC(C)(C)S(=O)N1Cc2cc(C(=O)NCc3ccc4c(c3)OCO4)nc(-c3cccc(-c4ccccc4)c3)c2[C@@H]1CCO (stereo partly specified)	5724
COC(=O)N1CCCCC1c1cc(C(=O)Nc2cccc3c2CCCC3)no1 (stereo unspecified)	2563
CCOc1ccc(-c2cc(C(=O)Nc3ccc(C)c(NS(C)(=O)=O)c3)[nH]n2)c(C)c1	3732
CCCCn1nnnc1C(c1ccccc1)N1CCN(C)CC1 (stereo unspecified)	5439
COc1ccc2oc(=O)cc(CN3CCN(Cc4ccccc4)CC3)c2c1	4185
Cc1noc(C)c1C(=O)N1CCC1(C)C(=O)NS(=O)(=O)c1cccc(F)c1 (stereo unspecified)	3770
COc1cccc(S(=O)(=O)N(C)C[C@@H]2OCc3cnnn3CCCC(=O)N([C@@H](C)CO)C[C@@H]2C)c1	3852
CC(C)C[C@H]1CN(CCCC[C@H]2CNC(=O)C(=O)N2CCc2ccc(O)cc2)C(=O)C(=O)N1CCc1ccc(O)cc1	5593
Nc1ncnc2c1ncn2[C@@H]1O[C@H](C(=O)N[C@H]2c3ccccc3C[C@H]2O)[C@@H](O)[C@H]1O	4073
CN(C)Cc1csc(NC(=O)Nc2ccccc2-c2ccccc2)n1	3206
CN(Cc1ccccc1)C(=O)c1ccc2nc([C@@H]3O[C@H](CO)[C@H](O)[C@H](O)[C@H]3O)[nH]c2c1	3152
CN(C)CCNC(=O)c1ccc(-c2cn3c(-c4ccc(Oc5ccccc5)cc4)cnc3cn2)cc1	4029
C[C@]12CC[C@H](O)C[C@@H]1CC[C@H]1[C@H]3CCC(=O)[C@@]3(C)CC[C@@H]12	3831
CCN(CC)C(=O)C(C)N1c2cccc3cccc(c23)S1(=O)=O (stereo unspecified)	3556
CCCCNC(=O)C1(C)CCN1Cc1ccc(C#N)cc1 (stereo unspecified)	3817
Cc1noc(C)c1COc1ccccc1C(=O)N1CCN(S(=O)(=O)c2ccc(C(C)C)cc2)CC1	3618
CSc1ccccc1C(=O)OCC(=O)Nc1c(C)n(C)n(-c2ccccc2)c1=O	3943
CC1(C(=O)NS(=O)(=O)c2ccc(Cl)s2)CCN1C(=O)C1(c2ccccc2)CCCC1 (stereo unspecified)	2836
Nc1ncnc2c1nc(-c1ccccc1)n2C1OC(CO)C(O)C1O (stereo unspecified)	3955
COc1ccc(NC(=O)C2CC(=O)N(c3ccccc3F)C2)cc1S(=O)(=O)N1CCCCC1 (stereo unspecified)	3470

A second format for some results above:
> O=C(NCC1CCCCC1)c1ccc2nc([C@@H]3O[C@H](CO)[C@@H](O)[C@H]3O)[nH]c2c1
  Autofluor counter: 3711

> CN(C)c1ccc(-c2ccnc3c2CC(C)(C(=O)Nc2cccc(Oc4ccccc4)c2)O3)cc1 (stereo unspecified)
  Autofluor counter: 3318

> COC(=O)c1ccc(CNC(=O)CN2C(=O)NC(Cc3ccccc3)(c3ccccc3)C2=O)cc1 (stereo unspecified)
  Autofluor counter: 3952

> CC(Sc1nc(N)cc(=O)[nH]1)C(=O)Nc1ccc(N2CCOCC2)cc1 (stereo unspecified)
  Autofluor counter: 3556

Bioassay records from PubChem BioAssay.
